Screening data: PubChem, Southern Research Institute
Mtb H37Rv = Confirmatory growth inhibition assay against Mycobacterium tuberculosis H37Rv, potency (AID 1949); most inactive calls were filed without a number and no value below 0 was filed; one-dose inhibition, % at 10 µg/mL; IC50 in µg/mL for titrated hits; hit rate 1.6% among 100,000;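 active means confirmed in a dose series; inconclusive means about 50% or more but not retested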;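 further: bacteria grown 7 days with compound before Alamar blue readout; 0% = untreated bacteria and 100% = reference antibiotic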
* = called active by the depositor; i = inactive; ? = inconclusive. Some of the compounds tested. The share of hits here may be higher or lower than overall.

SMILES | Mtb H37Rv
COc1cc(NS(=O)(=O)c2ccc(C(C)(C)C)cc2)c(OC)cc1Cl | i
CS(=O)(=O)N(CC(=O)N1CCN(c2ccccc2F)CC1)Cc1ccc(Cl)cc1 | i
COc1ccc(NC(=O)c2cccs2)c(C)c1 | i
COc1ccc(OC)c(NC(=S)Nc2ccc(OC(F)F)c(Cl)c2)c1 | i
O=[N+]([O-])c1cccc(S(=O)(=O)Nc2cc(Cl)cc(Cl)c2)c1 | i
CC1Cc2cc(C(=O)NC3CCCCC3)ccc2O1 (stereo not drawn) | 1%
CCC(N)C(=O)c1c(C)cc(C)cc1C (stereo not drawn) | 14%
S=C(NCc1ccc(Cl)cc1)N1CCN(c2ncccn2)CC1 | i
CC1(C)C(=O)OC(c2c(F)c(F)c(F)c(F)c2F)C2(CCCCC2)C1=O (stereo not drawn) | 5%
O=C(Cc1ccccc1)n1nc(-c2cccnc2)nc1NCc1ccccc1 | i
C=CCNC(=O)c1ccccc1NC(=O)CSCc1c(Cl)cccc1Cl | i
Cc1ccc(-c2cc(C(=O)Nc3sc(C(=O)OC(C)C)c(C)c3C(N)=O)c3ccccc3n2)o1 | i
COc1ccccc1C1=NN(C(=O)CCC(=O)O)C(c2ccco2)C1 (stereo not drawn) | i
CCn1c(=O)c([N+](=O)[O-])c(NCCOC)c2ccccc21 | i
CCCCc1ccc(NC(=O)c2ccc(OC(C)C)cc2)cc1 | i
COc1ccc(Cl)cc1NC(=S)Nc1ccc(I)cc1 | i
CC(C)CNc1cc(=O)n(C)c(=O)n1C | i
COc1ccc(S(=O)(=O)Nc2ccccc2C(=O)NCc2ccco2)cc1Br | i
S=C(NCc1ccncc1)NC1CCCC1 | i
COc1cccc(OC)c1C(=O)Nc1ccc(I)cc1C(F)(F)F | i
COC(=O)c1c(NC(=O)Nc2ccccc2)sc2c1CCC(C)C2 (stereo not drawn) | i
c1ccc(-c2noc(CC3CCCCC3)n2)nc1 | i
COC(=O)c1sc(N2C(=O)c3oc4ccccc4c(=O)c3C2c2ccc(F)cc2)nc1C (stereo not drawn) | 8%
CC(=O)c1ccc(NC(=O)CNS(=O)(=O)c2ccc(C(C)(C)C)cc2)cc1 | i
Cc1cc(Cl)ccc1OCC(=O)Nc1ccccc1N1CCOCC1 | i
CCOC(=O)Cc1ccc(NC(=O)C(F)(F)C(F)F)cc1 | 2%
COc1ccc(OC)c(N(CC(=O)Nc2ccc3c(c2)OCCO3)S(C)(=O)=O)c1 | i
COc1ccc2nc(C)cc(Nc3ccccc3O)c2c1 | 8.3µg/mL*
O=C(c1ccccc1C(=O)N1CCc2ccccc21)N1CCc2ccccc21 | i
CCc1ccc(C(=O)COC(=O)CCC(=O)c2ccc(C)cc2)cc1 | 2%
O=C(CN1CCCC1)N1c2ccccc2C=Cc2ccccc21 | i
O=C(c1cnn2c(-c3ccccc3)cc(-c3ccccc3)nc12)n1ccnc1 | i
CCOc1ccc(C(=O)c2oc3ccccc3c2NC(=O)c2ccccc2[N+](=O)[O-])cc1 | i
CC(CC(=O)O)n1nnc2ccccc21 (stereo not drawn) | i
S=C(NCCCN1CCOCC1)Nc1ccc(Oc2ccccc2)cc1 | i
COc1ccc(NC(=S)N2CCN(Cc3ccc(Cl)cc3Cl)CC2)c(OC)c1 | i
Cc1ccccc1C(=O)Nc1ccccc1 | i
Cc1cccc(NC(=O)COc2ccc(Br)cc2)n1 | ?
CCOc1cc(CO)ccc1OCc1cccc2ccccc12 | i
Cc1cccc(OCc2nnc(SCC(=O)Nc3cc([N+](=O)[O-])ccc3C)n2C)c1 | 6%
CCOc1ccc(NC(=O)CSc2nc(N)c3c4c(sc3n2)CN(C)CC4)cc1 | i
O=C1C2C3C=CC(C2C(=O)N1Cc1ccccc1)C1C2C(=O)N(Cc4ccccc4)C(=O)C2C31 (stereo not drawn) | i
Cc1ccc(CC(=O)n2nnc3ccccc32)cc1 | i
O=C(O)c1c[nH]c2c(F)c(F)c(F)c(NCc3ccccc3)c2c1=O | i
COc1ccc(S(=O)(=O)N(C)CC(=O)Nc2cc([N+](=O)[O-])ccc2C)cc1C | 1%
CC(C)(C)c1ccc(OCC(O)CN2CCN(c3cccc(Cl)c3)CC2)cc1 (stereo not drawn) | i
O=c1c2c3c(sc2nc2c4ccccc4c4nncn4n12)CCCC3 | i
COc1cc2ncnc(Nc3c(C)n(C)n(-c4ccccc4)c3=O)c2cc1OC | i
COC(=O)c1ccc2c(c1)nc(C)n2-c1ccccc1 | i
COc1ccc(OCCCN2CCCC(C)C2)cc1 (stereo not drawn) | i
O=C(CSc1nnc(-c2ccncc2)n1-c1ccccc1)c1ccccc1 | i
OCc1nc2ccccc2n1Cc1c(F)cccc1Cl | i
CCOC(=O)C1=C(CSc2nnc(C)s2)NC(=O)NC1c1cc(C)ccc1C (stereo not drawn) | 2%
CCOc1ccc(N(C(C)C(=O)NCc2ccc(Cl)cc2Cl)S(C)(=O)=O)cc1 (stereo not drawn) | i
COC(=O)c1cc(NC(=O)c2ccc(CN3CCOCC3)cc2)ccc1Cl | i
COc1cc(C(=O)O)cc(Cl)c1OC1CCCC1 | i
CN(C)c1ccc(NC(=O)c2cccc([N+](=O)[O-])c2)cc1 | 0%
CC1CN(C(=S)Nc2ccc(S(N)(=O)=O)cc2)CC(C)O1 (stereo not drawn) | 3%
O=[N+]([O-])c1ccc(OCCCN2CCCCCC2)cc1 | i
CCOc1cc(C=NN2CCN(C3c4ccccc4-c4ccccc43)CC2)ccc1O | i

Filtered by structure: the compounds so far with an aryl thioether with sulfur outside any ring
SMILES | Mtb H37Rv
Cc1cccc(OCc2nnc(SCC(=O)Nc3cc([N+](=O)[O-])ccc3C)n2C)c1 | 6%
CCOc1ccc(NC(=O)CSc2nc(N)c3c4c(sc3n2)CN(C)CC4)cc1 | i
O=C(CSc1nnc(-c2ccncc2)n1-c1ccccc1)c1ccccc1 | i
CCOC(=O)C1=C(CSc2nnc(C)s2)NC(=O)NC1c1cc(C)ccc1C (stereo not drawn) | 2%

(list continues)
SMILES | Mtb H37Rv
O=S(=O)(c1ccc(I)cc1)n1cnc2ccccc21 | i
CCN(CC)C(=O)C1C(=O)N(CCO)C2(C)CC1c1ccccc1O2 (stereo not drawn) | i
S=C(Nc1ccc(Oc2ccccc2)cc1)N1CCc2ccccc2C1 | i
CCN(CC)C(=O)C(C)Oc1ccc(Cl)cc1Cl (stereo not drawn) | i
CCCc1sc(N(C(=O)CC)c2ccccc2C)nc1-c1ccc(OCC)cc1 | 10%
CCOc1ccc(OCc2ccc(C(=O)OC)cc2)cc1 | 7%
NC(=O)c1ccc(NC(=S)Nc2ccc([N+](=O)[O-])cc2)cc1 | i
O=C(NCC(O)c1ccccc1)c1ccc(S(=O)(=O)N2CCOCC2)cc1 (stereo not drawn) | 2%
CCn1cc(Br)c(C(=O)Nc2nccs2)n1 | i
CCOC(=O)C1=C(C)N=C2SCCC(=O)N2C1c1ccc(C)cc1 (stereo not drawn) | i
COC(=O)c1ccc(CSc2nccn2C)cc1 | i
Cc1cc(C)c2nc(OCc3ccc(Cl)cc3)oc2n1 | 1%
COC(=O)c1ccccc1NC(=O)CSc1nnc(-c2ccccc2)o1 | i
N#Cc1nc(-c2ccccc2F)oc1N1CCCC1 | i
Oc1ccc(Br)cc1C1=NNC(c2cccnc2)C1 (stereo not drawn) | i
COc1ccc2[nH]c(C(=O)O)c(CCNC(C)=O)c2c1 | i
O=c1[nH]c(=S)[nH]c2sc3c(c12)CCCCC3 | i
CCOc1ccc(-n2c(C)c(C(=O)OC)c3cc(O)ccc32)cc1 | 0%
Cc1c(NC(=O)Nc2cccc(Cl)c2Cl)c(=O)n(-c2ccccc2)n1C | i
COc1cc(NC(=S)NCc2cccnc2)c(OC)cc1Cl | i
CN1CCN(C(=O)NC2CCCCC2)CC1 | i
O=S(=O)(Nc1ccccc1F)c1ccc(-c2ccccc2)cc1 | 4%
Cc1ccc(C)c2sc(NC(=O)c3cccnc3)nc12 | i
Cc1c(Cl)cccc1NC(=O)CCC(=O)NNC(=O)COc1ccc(Cl)cc1 | i
CS(=O)(=O)N1CCN(c2ccccc2NC(=O)c2ccc3c(c2)OCCO3)CC1 | i
COC(=O)c1c(NC(=O)c2ccccc2N(C)S(C)(=O)=O)sc2c1CCCC2 | 4%
COc1ccc(NC(=O)c2cccc(COc3ccc4ccccc4c3)c2)cc1 | i
CC(C)OC(=O)c1cccc(NC(=O)CSc2nc3ccccc3n2C)c1 | i
Cc1ccc(C2CC(=O)C3=C(C2)Nc2ccccc2NC3c2ccncc2)cc1 (stereo not drawn) | i
CCOC(=O)C(O)(c1ccc(N(C)C(=O)COc2ccccc2)cc1)C(F)(F)F (stereo not drawn) | 4%
COc1cc(CNc2cccc(C)c2)cc(Br)c1OCc1ccccc1 | 1%
O=C(Nc1cccc(F)c1)c1cnccn1 | i
Cc1ccc(CC(=O)Nc2nccs2)cc1 | i
COc1ccc(C(=O)Nc2ccc([N+](=O)[O-])cn2)c(OC)c1 | 6%
CC1(C)CC(=O)C2=C(C1)NC(SCC(=O)N1CCOCC1)=C(C#N)C2c1ccco1 (stereo not drawn) | i
Clc1cccc(-c2nn3c(-c4ccccc4)nnc3s2)c1 | i
COc1cc(OC)c(C2=NOC(C(=O)O)C2)cc1Cl (stereo not drawn) | i
COc1cc(/C=C2/SC(=O)N(CC(=O)O)C2=O)cc(OC)c1OC | i
COc1ccc(N2CCN(C(=S)c3ccccc3)CC2)cc1 | i
Cc1ccc(NC(=O)c2ccccc2OCC(=O)N2CCc3ccccc32)cc1Cl | i

Some of these compounds in order of molecular weight, rising:
SMILES | Mtb H37Rv
Cc1ccc(CC(=O)Nc2nccs2)cc1 | i
COc1cc(OC)c(C2=NOC(C(=O)O)C2)cc1Cl (stereo not drawn) | i
COc1ccc(C(=O)Nc2ccc([N+](=O)[O-])cn2)c(OC)c1 | 6%
O=S(=O)(Nc1ccccc1F)c1ccc(-c2ccccc2)cc1 | 4%
COc1ccc(NC(=O)c2cccc(COc3ccc4ccccc4c3)c2)cc1 | i
COc1cc(CNc2cccc(C)c2)cc(Br)c1OCc1ccccc1 | 1%
Cc1ccc(NC(=O)c2ccccc2OCC(=O)N2CCc3ccccc32)cc1Cl | i

Next section:
SMILES | Mtb H37Rv
CS(=O)(=O)N1CCN(C(=S)Nc2cccc3ccccc23)CC1 | i
CCOCCC(=O)Nc1ccccc1F | i
O=C(Nc1nc2nccc(-c3ccccc3)n2n1)c1cccc([N+](=O)[O-])c1 | i
COc1ccc(S(=O)(=O)N2CCC(C(=O)NCc3ccccc3Cl)CC2)cc1 | i
CCCc1cc(=O)[nH]c(SCC(=O)Nc2ccc3c(c2)OCCO3)n1 | i
Cc1ccccc1CN(c1ccc(C(=O)N2CCCC2)cc1)S(C)(=O)=O | i
CCS(=O)(=O)n1nc(-c2ccc(OC)cc2)nc1N | 1%
Cc1cc(C)n(C(=O)c2ccc(C)c(Br)c2)n1 | i
O=C(NNC1CC(=O)N(c2ccc3c(c2)OCCO3)C1=O)c1ccccc1 (stereo not drawn) | i
COc1ccc(S(=O)(=O)N/N=C(/C2CCCCC2)C(F)(F)F)cc1 | 30%
O=C(CCCOc1ccc(Cl)cc1Cl)NCCc1ccccc1 | i
O=C(Nc1ccc(Cl)cc1)C(=O)NC1CC1 | i
COc1ccc2nc(SCC(=O)Nc3cccc(C(C)=O)c3)[nH]c2c1 | i
CCN(CC)c1ccc(NC(=S)Nc2ccc(S(N)(=O)=O)cc2)cc1 | 28%
CN(C)/C=C1\N=C(c2ccccc2Cl)OC1=O | i
Clc1ccc(Cn2ncc3c(NCc4ccccc4)ncnc32)cc1 | 6.3µg/mL*
COC(=O)COc1ccc(NC(=O)COc2cccc(C)c2)cc1 | 0.77µg/mL*
COc1ccccc1CC(=O)Nc1cccc(C(=O)NC(C)(C)C)c1 | i
COc1c(Cl)cc(C(=O)Nc2ccccc2C(C)C)cc1Cl | i
CCC(C)c1ccc(C(CC)NC(=S)Nc2ccc(S(=O)(=O)Nc3ncccn3)cc2)cc1 (stereo not drawn) | i
Cc1ccc(OCC(=O)Nc2ncn[nH]2)c(Br)c1 | 1%
Cc1nnc(NC(=O)c2ccc(-c3cccc(C(F)(F)F)c3)o2)s1 | i
Cc1ccccc1NS(=O)(=O)c1ccc(NS(=O)(=O)c2ccccc2[N+](=O)[O-])cc1 | i
CS(=O)(=O)N1CCN(c2ccc(NC(=O)COc3ccc4ccccc4c3)cc2)CC1 | i
Cc1cc(NC(=O)c2cccs2)ccc1NC(=O)c1ccccc1 | i
CCOc1ccc(-c2csc3nc[nH]c(=O)c23)cc1 | i
COc1ccc(-c2nc(SCc3cc(Cl)ccc3OC)n[nH]2)cc1 | 9%
CCOc1ccc2nc(NC(=S)NCc3ccccc3)sc2c1 | 42%
CCC(=O)N1N=C2C3CCN(CC3)C2C1c1ccc(F)cc1 (stereo not drawn) | 1%
CN1CCN(C(=S)C(=O)NCc2ccc3c(c2)OCO3)CC1 | i
COc1ccc(S(=O)(=O)N(C)Cc2ccccc2)c(Cl)c1Cl | i
O=C(NC1=NCCS1)c1ccc2c(c1)C(=O)N(Cc1ccco1)C2=O | i
CCN(CC)S(=O)(=O)c1ccc(NC(=O)c2ccc(C)c(I)c2)cc1 | 36%
O=C(CCc1ccccc1)Nc1nnc(SCC(=O)Nc2ccccc2[N+](=O)[O-])s1 | 4%
CCCOC(=O)c1ccc(NC(=O)c2cc(Br)ccc2OC)cc1 | 2%
COc1ccc(C2Nc3ccccc3C(=O)N2Cc2ccccc2)cc1CN1C(=O)c2ccccc2C1=O (stereo not drawn) | 1%

2 records picked at random from those above, as already listed:
SMILES | Mtb H37Rv
CCOC(=O)C1=C(C)N=C2SCCC(=O)N2C1c1ccc(C)cc1 (stereo not drawn) | i
CC1(C)CC(=O)C2=C(C1)NC(SCC(=O)N1CCOCC1)=C(C#N)C2c1ccco1 (stereo not drawn) | i
